A647 fluor: compound autofluorescence in A647 spectral region. Compound fluorescence, A647 channel (570/671 nm), Tris buffer. AID 592. 59,000 tested, under 10 active. max dye-equivalent concentration, M; active means above 1 µM dye equivalent; inconclusive means 0.1 to 1 µM; inactive means 0.1 µM or less;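 also: values scaled relative to a standard on each plate; highest value over a series up to 38 µM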
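Fluorescence read (570 nm ex, 671 nm em) after 15 min RT incubation of compounds in 100 mM Tris buffer, pH 8.0; values expressed as dye-equivalent concentration against a six-point A647 standard series on each plate.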
TSHR ag: agonists of human thyroid stimulating hormone receptor; AID 926; HEK293-CNG-TSHR cells (CNG channel as cAMP sensor), membrane potential dye, cAMP; 0.48% of 73,000 active; P16473; Potency, µM (series often up to 57.1 µM), for the others: top-dose activation, usual class: activators; active = well fitted activation curve of enough size with the parental cells flat; inconclusive = any curve in the parental cells; inactive = parental cells flat and receptor cells flat or falling; also: potency is read from the fitted curve at half-maximal effect; % of control where 0% means no effect; weak receptor curves with flat parental cells got no call and are not listed
Target sequence (P16473 whole entry, looked up): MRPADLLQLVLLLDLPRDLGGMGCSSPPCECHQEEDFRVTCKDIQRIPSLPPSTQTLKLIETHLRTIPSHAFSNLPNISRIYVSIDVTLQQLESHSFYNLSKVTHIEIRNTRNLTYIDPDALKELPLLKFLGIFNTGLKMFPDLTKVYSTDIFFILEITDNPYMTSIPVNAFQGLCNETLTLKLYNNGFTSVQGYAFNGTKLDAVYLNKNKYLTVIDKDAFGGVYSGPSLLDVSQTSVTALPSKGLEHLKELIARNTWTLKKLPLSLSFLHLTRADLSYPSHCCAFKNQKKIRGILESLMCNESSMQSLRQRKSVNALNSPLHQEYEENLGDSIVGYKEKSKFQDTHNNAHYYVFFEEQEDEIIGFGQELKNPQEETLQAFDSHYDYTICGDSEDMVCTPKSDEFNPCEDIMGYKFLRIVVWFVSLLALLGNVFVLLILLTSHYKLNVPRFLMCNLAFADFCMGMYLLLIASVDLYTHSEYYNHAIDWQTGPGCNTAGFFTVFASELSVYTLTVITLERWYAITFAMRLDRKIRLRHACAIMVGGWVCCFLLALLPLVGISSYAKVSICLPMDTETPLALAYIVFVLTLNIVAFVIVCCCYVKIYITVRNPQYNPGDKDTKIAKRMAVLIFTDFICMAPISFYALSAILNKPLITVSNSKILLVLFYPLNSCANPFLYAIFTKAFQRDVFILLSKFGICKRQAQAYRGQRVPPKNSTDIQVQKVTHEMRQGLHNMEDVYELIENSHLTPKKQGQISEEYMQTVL
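HEK 293 cells stably expressing TSHR and a modified CNG channel, with CNG-only parental cells as counterscreen, were preloaded 60 min at room temperature with membrane potential dye containing 100 uM RO 20-1724. Compound exposure was 30 min, and depolarization was read as fluorescence at 590 nm.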
A488 fluor: compound fluoresces in the A488 spectral region; 0.1% of 59,000 active; max dye equivalency, M; AID 591; compound autofluorescence, A488 spectral region, dye equivalency; stronger effect = higher value; active = above 10 nM dye equivalent; inconclusive = 1 to 10 nM; inactive = 1 nM or less; about half of its hits are not listed in these tables;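 also: highest value over a series up to 38 µM; compound alone in buffer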
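Spectroscopic profiling in the A488 region: compounds in pH 8.0 Tris (100 mM), 15 min RT, CCD imaging with 480 nm excitation and 540 nm emission; responses normalized against A488 dye standards.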
AID923: qHTS Assay for Allosteric/Competitive Inhibitors of Caspase-1: Spectroscopic Profiling in AFC Spectral Region; compound fluorescence, AFC spectral region (405/520 nm); almost no hit is shown here; Potency, µM (titrated, usually from 57.5 µM), for the others: at the highest dose fluorescence increase, actives largely listed as activators; 1.1% of 75,000 active; active = well fitted activation curve with a large enough effect; inconclusive = small, poorly fitted or top-dose-only effect;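 also: potency is read from the fitted curve at half-maximal effect; 0% is about no effect; scaled to a free AFC standard on each plate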
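Baseline compound fluorescence (AFC region, 405 nm ex/520 nm em) taken from the intercept of kinetic reads with 50 nM caspase-1 and 5 uM Ac-WEHD-AFC; normalized to an on-plate AFC standard curve; compounds titrated up to 57 uM.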
Resorufin autofl: resorufin region autofluorescence; 0.04% of 59,000 active; Compound fluorescence, resorufin region 547/598 nm, buffer; stronger effect = higher value; AID 588; max dye-equivalent concentration, M; active = above 10 nM dye equivalent; inconclusive = 1 to 10 nM; inactive = 1 nM or less; a few of its hits are not listed in these tables; also: highest value over a series up to 38 µM
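Compounds in 100 mM Tris, pH 8.0, incubated 15 min at room temperature, then fluorescence read at 547 nm excitation/598 nm emission. Signal converted to dye-equivalent concentration via an on-plate six-point resorufin standard curve, per compound concentration.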
Starred values were filed as active, the others as inactive; i = inactive; ? = inconclusive; / = not tested or not shown; [ ] = dose if it differs, or a comment. A portion of the library. The share of hits here may be higher or lower than overall.

Below each SMILES – A647 fluor | TSHR ag | A488 fluor | AID923 | Resorufin autofl
COc1cc(S(=O)(=O)N2CCOCC2)ccc1F
→ 2.5e-09 | -3% | i | 1.7% | i
Cc1c(NC(=O)c2ccc(N3C(=O)C4C5C=CC(C5)C4C3=O)cc2)c(=O)n(-c2ccccc2)n1C (stereo not drawn)
→ 3.3e-09 | ? | i | -0.9% | i
O=C(CSc1nnc(Cn2c(=O)sc3ccccc32)n1-c1ccccc1)N1CCCC1
→ / | 3% | / | 2.3% | /
COc1ccc(-n2c(SCC(=O)N3CCCC(C)C3)nnc2-c2cccnc2)cc1 (stereo not drawn)
→ 9.3e-09 | -4% | i | -1.1% | i
CCn1c(C)c(C(C)=O)c(N2CCCC2)nc1=S
→ / | -3%[11.4 µM] | / | -2.4% | /
Nc1c(C(=O)Nc2ccc3c(c2)OCCO3)nnn1CCc1ccccc1
→ / | -7% | / | -1.4% | /
O=c1[nH]c(NCc2ccco2)nnc1Cc1ccccc1Cl
→ 1.8e-08 | 4% | i | 0.4% | i
Cc1c(C(=O)NC(C)c2ccncc2)oc2ccccc12 (stereo not drawn)
→ 2.2e-08 | 3% | i | 3.0% | i
CCn1nnnc1-c1ccc(OC)c(S(=O)(=O)Nc2ccc(OC)cc2)c1
→ 1e-09 | 5% | i | -2.3% | i
O=C(CCN1C(=O)c2ccccc2C1=O)N1CCCCCC1
→ / | 2% | / | 2.5% | /
Cc1ccc(-c2c(C)n([O-])c3c([n+]2=O)CCC3)o1
→ 3.1e-08 | 4% | i | 0.6% | i
CCCn1c(=S)[nH]c2cc(C(=O)NCC3CCCO3)ccc2c1=O (stereo not drawn)
→ / | 6% | / | -0.5% | /
CC(c1ccco1)N(C(=O)CSc1ccc(Br)cc1)c1ccccn1 (stereo not drawn)
→ 2e-08 | ? | i | 1.8% | i
COc1ccc(C(c2nnnn2C2CCCC2)N2CCC(C(N)=O)CC2)c(OC)c1 (stereo not drawn)
→ 2.2e-08 | 11% | i | -1.7% | i
CCCn1c(SCC(=O)N2CCc3ccccc3C2)nc2c1c(=O)n(C)c(=O)n2C
→ 1e-09 | 0% | i | -0.1% | i
OCc1csc(=Nc2ccccc2)n1-c1ccccc1
→ 1e-09 | 1% | i | -0.6% | i
O=C(O)c1ccc(NS(=O)(=O)c2cc(Cl)ccc2Cl)cc1O
→ 3.2e-08 | 8% | i | 0.2% | i
Cn1nnnc1SCC(=O)N1CCN(c2ccccc2)CC1
→ / | 0% | / | -2.1% | /
O=C(NCCN1CCOCC1)c1cc2sccc2n1Cc1ccc(Cl)cc1
→ / | 15% | / | -1.8% | /
COc1ccc(Br)cc1CNC(=O)C1CCN(S(=O)(=O)N2CCCC2)CC1
→ 2.5e-08 | 5%[11.4 µM] | i | 0.8% | i
O=c1[nH]c2ccccc2nc1C(F)(F)C(F)F
→ / | -6%[11.4 µM] | / | 9.2% | /
NC(=O)C1CCN(C2CC(=O)N(c3cccc(F)c3)C2=O)CC1 (stereo not drawn)
→ 1e-09 | -5% | i | 1.0% | i
Cc1ccccc1-c1nnc(SCC(=O)NC2CCCCC2)o1
→ 1e-09 | ? | i | 1.2% | i
COc1cccc(NC(=O)N2CCOCC2)c1
→ / | 3%[11.4 µM] | / | 1.5% | /
C/C(N)=C(/C#N)C(=O)COC(=O)COc1ccc(Cl)cc1
→ 1.4e-08 | ? | i | 1.7% | i
COc1cccc(C(=O)N2CCN(Cc3ccco3)CC2)c1OC
→ 1e-09 | -11% | i | -0.7% | i
CC(=O)C(Sc1nc(NC(C)(C)C)nc(N(C)C)n1)C(C)=O
→ 9.6e-09 | 15% | i | 0.6% | i
CCC(C)C(NC(=O)C1CCC(C)CC1)C(=O)NCc1cccnc1 (stereo not drawn)
→ 8e-09 | ? | i | 3.0% | i
CCOc1ccc(CNC(=O)CCn2c(=O)oc3ccccc32)cc1OC
→ 5.1e-09 | -6% | i | 0.2% | i
CC(C)C[C@H](NC(=O)OC(C)(C)C)c1nnc(SCC(=O)Nc2ccc(Br)cc2)o1
→ 1e-09 | 1% | i | -2.6% | i
O=C1c2ccccc2C(=O)N1C1(C(=O)NC2(C(=O)O)CCCC2)CCCC1
→ 3.1e-08 | 7%[11.4 µM] | i | -6.0%[11.5 µM] | i
Cc1cc2cc(CNC(=O)Nc3ccccc3)ccc2n1C
→ 1.5e-08 | -12% | i | 2.2% | i
O=C(Nc1ccc(Nc2ccccc2)cc1)c1ccc(Br)o1
→ / | ? | / | 1.0% | /
CC1Cc2c(-c3ccccc3)nc3c(c2CO1)CN(CCOc1ccccc1)CC3 (stereo not drawn)
→ / | 2%[11.4 µM] | / | 4.1%[11.5 µM] | /
Cc1c(C(=O)OCCOc2ccccc2)[nH]c2c1C(=O)CCC2
→ 2.7e-08 | ? | i | -1.0% | i
COc1cc(Cl)cc(C2NC(=O)NC(C)=C2C(=O)NCc2ccccc2)c1O (stereo not drawn)
→ 1e-09 | -4% | i | 0.1% | i
O=C(CSc1nc(N2CCCCC2)nc(N2CCCCC2)n1)Nc1nccs1
→ 1.8e-09 | -3% | i | -2.6% | i
CCOc1ccc(N(CC(=O)NC(C)CC)S(=O)(=O)c2c(C)noc2C)cc1 (stereo not drawn)
→ / | 28% | / | -3.1% | /
O=C(OCn1nnc2ccccc2c1=O)c1ccc(Br)o1
→ 1.2e-08 | 1% | i | 1.5% | i
Cc1ccc(-c2nc3cc(NC(=O)C(C)C)ccc3o2)cc1C
→ 1e-09 | 11% | i | -1.5% | i
Cc1cccc2cc(CN(Cc3ccco3)C(=O)NC3CCCCC3)c(=O)[nH]c12
→ 1e-09 | ? | i | -0.5% | i
O=Nc1ccc(NO)cc1
→ / | 5% | / | -0.9% | /
O=C(Nc1ccc2nccnc2c1)c1cnccn1
→ 1e-09 | -4% | i | 1.9% | i
Cc1cc(O)cc(O)c1-c1onc(C(F)(F)F)c1-c1cscn1
→ 1e-09 | -8%[11.4 µM] | i | 0.0% | i
COC(=O)c1cccc(NC(=O)CN2CCN(c3ccc(OC)cc3)CC2)c1
→ 1e-08 | ? | i | -1.3% | i
CN(c1ccccc1)S(=O)(=O)c1cc(C(=O)c2nccn2C)ccc1Cl
→ 1e-09 | 20% | i | 0.9% | i
COCCNC(=O)C(c1ccc(O)cc1)N(Cc1ccco1)C(=O)CCC(=O)Nc1nccs1 (stereo not drawn)
→ 2e-09 | 2% | i | 1.5% | i
CCN1C(=O)c2cccc3c(S(=O)(=O)Nc4ccccc4OC)ccc1c23
→ 1.3e-09 | ? | i | 10% | i
NC(=O)C1CCN(C(=O)C2c3ccccc3C(=O)N3CCc4ccccc4C23)CC1 (stereo not drawn)
→ 1e-09 | 1% | i | 0.1% | i
COc1cc(OC)c(NC(=O)CCNS(=O)(=O)c2cc(Br)cnc2N)cc1Cl
→ 1e-09 | -14% | i | -0.2% | i

Next records
| Molecule | A647 fluor | TSHR ag | A488 fluor | AID923 | Resorufin autofl |
| --- | --- | --- | --- | --- | --- |
| CCOC(=O)C1=C(c2ccccc2)NC(SC)=C(C#N)C1c1ccco1 (stereo not drawn) | 5.9e-09 | / | i | 0.6% | i |
| CC(C)N1CC(O)=C(c2ccccc2)C1=N | 4.4e-09 | ? | i | 0.7% | i |
| O=C(Cn1nc(-c2ccc(Cl)cc2)ccc1=O)NCCCN1CCN(Cc2ccccc2)CC1 | 1e-09 | ? | i | -0.6% | i |
| Cc1ccccc1-c1c(C)oc2cc(O)ccc2c1=O | / | 3% | / | -2.8% | / |
| Cc1ccc(C)c(NC(=O)CNS(=O)(=O)c2ccccc2)c1 | 1.8e-08 | 5% | i | -0.3% | i |
| O=C(NCCCNCc1ccccc1)c1ccc(/C=N/O)nc1 | / | 8%[11.4 µM] | / | 0.0% | / |
| Cc1ccc(C(C)C)c(OCC(=O)Nc2ccccc2N2CCN(C)CC2)c1 | 1e-09 | 28% | i | 3.6% | i |
| Cc1occc1C(=O)Nc1ccc2c(c1)OCCO2 | 3.1e-09 | -16% | i | -1.5% | i |
| CC(C)COC(=O)C1C(=O)CC(C)(O)C(C(=O)OCC(C)C)C1c1cccnc1 (stereo not drawn) | 8.9e-09 | ? | i | -0.8% | i |
| O=C(c1ccco1)N1CCC2(CCCN(c3ccncc3)C2)CC1 | 5.4e-09 | 13% | i | 1.5% | i |
| O=C1c2ccccc2C(=O)N1CC(O)COCc1ccccc1 (stereo not drawn) | 5e-09 | -1% | i | 0.5% | i |
| Cn1c(SCC(=O)Nc2cc(=O)n(C)c(=O)n2C)nnc1-c1cccs1 | / | -5% | / | 4.5% | / |
| CC1(C)Cc2cccc(OCC(=O)Nc3nccs3)c2O1 | 2.8e-09 | 2% | i | 0.2% | i |
| CC(C)c1nc(N2CCN(C(=O)c3ccccc3)CC2)c(C#N)c2c1COC(C)(C)C2 | 1e-09 | / | i | 0.8% | i |
| CCN(CC)CCN1C(=O)c2oc3ccccc3c(=O)c2C1c1ccc(F)cc1 (stereo not drawn) | 3.7e-09 | 4% | i | 0.8% | i |
| O=C(c1cccs1)N1CCN(Cc2nc3ccccc3c(=O)[nH]2)CC1 | 4e-08 | 3% | i | 2.0% | i |
| COc1ccc(C)cc1N | / | -2% | / | -0.8% | / |
| O=C1CCC(=O)N1CNc1ccccn1 | 6.8e-08 | / | i | / | i |
| c1ccc2n[nH]nc2c1 | / | ? | / | -5.4% | / |
| CCOC(=O)C1CCN(C(c2cc(OC)c(OC)c(OC)c2)c2sc3nc(C)nn3c2O)CC1 (stereo not drawn) | / | 10% | / | -3.7% | / |
| CC(=O)OCCn1c(=O)c2cc3c(=O)n(CCOC(C)=O)c(=O)c3cc2c1=O | / | -11% | / | 0.2% | / |
| O=C(Nc1nncs1)c1ccccc1NS(=O)(=O)c1cccs1 | 1.9e-09 | -7% | i | 2.2% | i |
| O=C(NCc1ccccc1)c1c[nH]c2ccc(S(=O)(=O)Nc3ccc4c(c3)OCCO4)cc2c1=O | 1.1e-09 | -4% | i | 8.0% | i |
| COc1ccc(-c2cc(C(=O)N3CCN(Cc4ccccc4)CC3)no2)cc1OC | 1e-09 | 8%[11.4 µM] | i | 1.4% | i |

For reference, three of the compounds above.
| Molecule | A647 fluor | TSHR ag | A488 fluor | AID923 | Resorufin autofl |
| --- | --- | --- | --- | --- | --- |
| O=C(Nc1nncs1)c1ccccc1NS(=O)(=O)c1cccs1 | 1.9e-09 | -7% | i | 2.2% | i |
| O=C(NCc1ccccc1)c1c[nH]c2ccc(S(=O)(=O)Nc3ccc4c(c3)OCCO4)cc2c1=O | 1.1e-09 | -4% | i | 8.0% | i |
| COc1ccc(-c2cc(C(=O)N3CCN(Cc4ccccc4)CC3)no2)cc1OC | 1e-09 | 8%[11.4 µM] | i | 1.4% | i |

Continued:
| Molecule | A647 fluor | TSHR ag | A488 fluor | AID923 | Resorufin autofl |
| --- | --- | --- | --- | --- | --- |
| CN1CCN(S(=O)(=O)c2ccc(NC(=O)c3ccc(F)cc3)cc2)CC1 | 1e-09 | -1% | i | -0.7% | i |
| COC(=O)c1ccc(C2CC(=O)NC3=C2C(=O)CCC3)cc1 (stereo not drawn) | 3e-08 | 5%[11.4 µM] | i | -1.0% | i |
| Cc1ccccc1Cn1c2ccccc2c2cn[nH]c(=O)c21 | / | 17% | / | -2.1% | / |
| NC1=NCc2ccccc21 | 5.1e-08 | / | i | -0.8% | i |
| COc1ccc(CC(=O)NCc2ccccc2Cl)cc1S(=O)(=O)N1CCOCC1 | 3.8e-08 | -1%[11.4 µM] | i | -1.0% | i |
| COc1ccccc1CN1CCC2(CC1)CCN(C(=O)c1ccncc1)CC2 | 2.3e-09 | -4% | i | 0.5% | i |
| CCSc1nc(C)nc2c1oc1ccccc12 | 2.5e-08 | 29% | i | 0.1% | i |
| CCOc1ccc(NC(=O)C2CCN(C(=O)NCc3ccccc3)CC2)cc1 | 1e-09 | -8% | i | -0.3% | i |

Bioassay records deposited in PubChem BioAssay by National Center for Advancing Translational Sciences (NCATS).
